Rango-impB inh = inhibitors of Rango-importin beta complex formation; Q14974; Rango CFP/YFP FRET sensor + importin beta, 45 min; Potency, µM (titrated, usually from 92.2 µM), for inactives: at the highest dose inhibition of complex formation; 340,000 tested, 0.031% active; active = rising FRET ratio curve, often small or poorly fitted; inconclusive = mostly compound fluorescence or quenching in the first reads; inactive = flat curves in all reads;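 further: potency means the concentration at half of the fitted maximal effect; 0% = DMSO wells and 100% = buffer wells lacking importin beta; nearly all actives have a fitted effect of over 15% in size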
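Inhibition scored from the CFP 486 nm/YFP 530 nm FRET ratio 45 min after adding 0.125 microM importin beta to 50 nM Rango biosensor preincubated 5 min with compound (room temperature, PBS with DTT, Tween-20, BSA). No-importin wells as positive control.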
Rango dissoc inh = prevents RanGTP from dissociating the Rango-importin beta complex; Potency, µM (doses to about 46.1 µM), without a hit: at the top dose activity change, negative = inhibition; Biochemical FRET Rango-importin beta, RanGTP-induced dissociation; 340,000 tested, 0.071% active; active means falling FRET ratio curve, often poorly fitted, with flat reads before Ran was added; inconclusive means other falling curves, or compound fluorescence or quenching; inactive means flat or rising ratio curve;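 further: potency means the concentration at half of the fitted maximal effect; % of control where 0% means no effect; nearly all actives have a fitted effect of over 45% in size; -100% = wells without RanGTP and RCC1; the record marks most hits as doubtful in a second field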
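Two FRET readings bracket the reaction: one 5 min after compound meets Rango–importin beta, another 45 min after RanGTP-RCC1 (0.6 uM Ran, 0.2 uM RCC1, 2 mM GTP) is added. Only the second defines inhibition.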
miR-21 reporter = raises the signal of a miR-21 reporter | HeLa miR-21 FLuc reporter, luciferase, 48 h | 340,000 tested, under 10 active | AID 2288 | Potency, µM (top dose mostly 38.3 µM), for inactives: at the top dose reporter change, positive = more light; active = well fitted rising curve with a large enough effect; inconclusive = small, poorly fitted or top-dose-only effect; inactive = no such curve, though single readings can be large or run the other way;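 further: % of control where 0% means no effect; miR-21 action dims this reporter so a rising signal means less miR-21 action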
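Using DMEM plus 10% FBS, HeLa miR-21-FLuc cells are incubated with test compounds (final up to about 40uM) for 48 hours; firefly luciferase signal is then imaged following reagent-mediated lysis.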
GLA inh pH 4.5 = blocks human alpha-galactosidase A at pH 4.5 | purified enzyme, 4-MU-alpha-Gal fluorescence, pH 4.5 | activity change, negative = inhibition, % at 105 µM | 230,000 tested, under 10 active; inconclusive = small, poorly fitted or top-dose-only inhibition, or a rising curve; inactive = flat fitted curve, though single readings scatter; no compound was filed as active;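 further: 0% = full activity with enzyme and -100% = basal without enzyme; dose as in the result columns while the protocol names 77 µM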
Target sequence (P06280 whole entry, looked up): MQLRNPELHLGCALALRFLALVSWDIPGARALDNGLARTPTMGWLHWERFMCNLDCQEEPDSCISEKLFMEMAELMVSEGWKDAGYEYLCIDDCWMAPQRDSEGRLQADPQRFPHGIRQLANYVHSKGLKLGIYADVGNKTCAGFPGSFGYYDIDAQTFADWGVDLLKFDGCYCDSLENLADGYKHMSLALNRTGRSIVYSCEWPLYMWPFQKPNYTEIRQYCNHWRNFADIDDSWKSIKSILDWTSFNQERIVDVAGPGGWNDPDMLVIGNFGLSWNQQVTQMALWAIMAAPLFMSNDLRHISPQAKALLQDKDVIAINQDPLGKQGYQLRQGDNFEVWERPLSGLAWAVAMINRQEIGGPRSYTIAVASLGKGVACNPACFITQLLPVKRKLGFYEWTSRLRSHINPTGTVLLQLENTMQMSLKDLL
* = called active by the depositor; ? = inconclusive; . = not tested or not shown; & = joins results of further samples.

SMILES	Rango-impB inh	Rango dissoc inh	miR-21 reporter	GLA inh pH 4.5
Cc1[nH]c2ccccc2c1C(O)c1ccncc1 (stereo not given)	0.3%	-3%	4%	4
CCOC(=O)c1sc(NC(=O)CN2CCN(c3ccc(OC)cc3)CC2)nc1C	4.7%	-6%	5%	.
COc1ccc(NC(=O)c2cc(-c3cccs3)on2)cc1	4.9%	20%	-47%	.
OCc1csc(=Nc2ccccc2)n1-c1ccccc1	0.0%	21%	-12%	-6
Cc1ccc(NC(=O)NC2CC(=O)N(c3ccc4c(c3)OCCO4)C2)cc1C (stereo not given)	0.4%	-4%	.	.
CCC(C)(NC(=O)c1ccccc1)C(=O)O (stereo not given)	-2.9%	-1%	-4%	5
CN1CCS/C1=C\C=C1/SC(=S)N(CC(=O)O)C1=O	58µM*	?	7%	-12
COc1ccc(OC)c(CN2CCN(C(=O)c3cc4ccccc4cc3O)CC2)c1	-0.4%	-11%	3%	.
O=C1c2cc(Cl)ccc2-c2c(O)cc(Cl)cc21	0.7%	-4%	.	.
C/C=C(\C)C(=O)NCCN1C2=NC[C@H](Cc3ccc(O)cc3)N2C[C@H]1Cc1ccc(O)cc1	-1.3%	1%	0%	-2
CCOC(=O)c1cc(C(C)(C)C)oc1CN	-2.4%	23%	-5%	0
COc1cccc(NC(=O)CN2CCN(c3ccc(F)cc3)CC2)c1	3.8%	2%	2%	-19
COc1ccc(C2CC(=O)C=C(NNS(=O)(=O)c3ccc(C)cc3)C2)cc1 (stereo not given)	1.7%	-17%	-12%	-1
O=C(O)CCC(=O)N1N=C(c2c(-c3ccccc3)c3cc(Cl)ccc3[nH]c2=O)CC1c1ccccc1 (stereo not given)	3.8%	-3%	2%	3
CSc1nc(N)nc2c1ncn2CC(=O)NCC(c1ccccc1)c1ccccc1	-4.3%	1%	.	.
CCCCS(=O)(=O)N1CCCC(C(=O)Oc2ccc(Cl)cc2)C1 (stereo not given)	-1.1%	-2%	4%	.
Oc1ccc(/C=N/n2c(COc3ccccc3)n[nH]c2=S)cc1O	1.8%	14%	-33%	.
COCC1CCN(C(=O)c2cc(COc3cccc4cnccc34)on2)CC1	0.1%	-19%	27%	.
CCOC(=O)N1CCN(C(=O)CNC(=O)c2ccccc2F)CC1	1.0%	-14%	.	.
CC(C)CCNc1nc(N)c([N+](=O)[O-])c(N2CCCCCC2)n1	-2.4%	0%	20%	.
COC(=O)C1(Cc2cc(-c3ccc(Cl)cc3)no2)CCN(C(=O)OC(C)(C)C)CC1	0.8%	32%	-7%	.
O=C(O)c1cccc2c1C(=O)N(c1ccc3c(c1)Cc1ccccc1-3)C2=O	0.5%	18%	.	.
Cc1cc(NC(=O)c2ccc(F)cc2)ccc1NC(=O)c1ccco1	-0.7%	37%	-24%	.
Cn1c(CNS(=O)(=O)c2ccc(Cl)cc2)n[nH]c1=S	2.6%	20%	-2%	-18
N/C(=N\NC(=O)c1ccc(F)cc1)c1cc2ccccc2oc1=O	0.0%	?	0%	-3
COc1cc(NC(=O)CSCC(=O)Nc2cccc(C(F)(F)F)c2)c(Cl)cc1Cl	1.2%	4%	9%	0
O=C(COc1ccccc1)N/N=C/c1sc(=O)n(Cc2cccc(C(=O)O)c2)c1Cl	?	-15%	-1%	-13
Cn1cc2cc([N+](=O)[O-])ccc2n1	1.6%	14%	5%	10
COC(=O)CNC(=O)Cn1ccc2ccccc2c1=O	1.3%	2%	0%	2
Cn1cccc1Cc1nnc(SCC(=O)Nc2nccs2)n1CCc1ccccc1	-0.3%	5%	-3%	1
O=C(CN1CCCCC1)NCCNc1ccc(C(F)(F)F)cc1[N+](=O)[O-]	-0.4%	-10%	-12%	-9
O=C1c2ccccc2C(=O)N1CCCc1cn(C[C@H]2CC[C@H](Cn3cc(CCCN4C(=O)c5ccccc5C4=O)nn3)O2)nn1	-4.4%	0%	.	.
O=C(NCCN1CCCCC1)Nc1ccc(F)c(Cl)c1	0.1%	9%	-6%	7
O=C(Cn1nnc(-c2ccccc2NC(=O)c2ccccc2F)n1)NC1CCCC1	-0.4%	0%	-4%	-4
Cc1ccc(NCC(=O)Nc2ccc(Br)cc2)cc1F	4.7%	7%	-12%	2
CCN1CC2([N+](=O)[O-])C=CC(=O)C([N+](=O)[O-])(C1)C2CC(=O)c1ccccc1 (stereo not given)	-6.5%	-14%	-1%	-2
COc1ccc(CCNC(=O)C2CCCN(Cc3nc(-c4ccccc4C)oc3C)C2)cc1OC (stereo not given)	1.4%	1%	10%	-5
CCOC(=O)/C=c1\s/c(=C(\C#N)C(=O)NC)n(-c2ccccc2)c1=O	4.2%	19%	3%	1
Cn1c(=O)[nH]c(=O)c2[nH]c(CN3CCN(C(=O)c4ccco4)CC3)nc21	0.9%	-11%	-7%	4
COc1c2occc2c(OC)c2c(=O)cc(C(F)(F)C(F)(F)F)oc12	-0.1%	-5%	-4%	1
O=C(O)CCC(=O)N1N=C(c2ccccc2)CC1c1ccc2nccnc2c1 (stereo not given)	-0.5%	7%	-11%	-2
CCc1nnc(NC(=O)CSc2ccc(-c3ccc(F)cc3)nn2)s1	.	.	-12%	-4
O=C(CNC(=O)c1ccc(Br)o1)Nc1ccc(N2CCCCCC2)cc1	-2.4%	1%	.	.
CCN1CCN(C(=O)c2[nH]c3ccc(OC)cc3c2C)CC1	-1.9%	8%	1%	.
Cc1ccccc1Nc1nc(N)nc(CSc2nncn2C)n1	-1.3%	-7%	-14%	-2
CC1CCN(CCOc2cc(Cl)ccc2Cl)CC1	4.8%	-11%	-6%	0
COc1ccc(CN2C(=NC(=O)C3CC3)SC3CS(=O)(=O)CC32)cc1OC (stereo not given)	0.5%	?	-3%	.
O=C(CN1C(=O)NC2(CCCCC2)C1=O)N1CCN(c2ncccn2)CC1	-1.1%	-4%	.	.
O=C(COC(=O)c1ccc(S(=O)(=O)N2CCc3ccccc3C2)cc1)NC1CCS(=O)(=O)C1 (stereo not given)	2.3%	-6%	0%	-9
O=C(COC(=O)c1ccc(Br)cc1)NC(=O)NCc1ccccc1	-1.0%	13%	.	.
(further entries)
SMILES	Rango-impB inh	Rango dissoc inh	miR-21 reporter	GLA inh pH 4.5
O=C(CSc1nc(-c2ccccc2)cc(C(F)(F)F)n1)NCc1ccco1	-8.0%	1%	-5%	1
CN(C(=O)CCN1C(=O)/C(=C/c2ccccc2F)SC1=S)C1CCS(=O)(=O)C1 (stereo not given)	-0.5%	0%	0%	.
CC(C)N1C(=O)C2(OCCCO2)c2cc(Br)ccc21	0.5%	2%	3%	.
Cc1cccnc1NC(=O)C1CCN(S(=O)(=O)c2ccc3c(c2)CCC(=O)N3)CC1	-2.6%	20%	-4%	-2
Brc1ccc2ncc(Br)cc2c1	-3.6%	2%	-6%	0
CN(C)S(=O)(=O)c1cc(NC(=O)CNCc2ccc(F)cc2)ccc1Cl	0.9%	5%	-12%	.
COc1ccc2c(c1)[C@H]1[C@H](CO2)[C@H](c2ccccc2)[C@]2(C)C(=O)Nc3ccccc3C(=O)N12	-0.5%	0%	.	.
C=C(C)CNC(=S)N/N=C/c1ccc(N2CCOCC2)cc1	3.0%	-8%	-16%	0
CCN(CC(=O)NCCN1CCOCC1)S(=O)(=O)c1ccc(F)cc1	-0.2%	-5%	-2%	.
COc1ccc2nc(SC(C)C(=O)NC3CCCC3)[nH]c2c1 (stereo not given)	-0.4%	-5%	.	.
CCN1C(C)=C(C)S/C1=C1\SC(=S)N(C2CCCCC2)C1=O	?	?	-1%	4
Cc1cccc(/C=C2/SC(=O)N(Cc3ccccc3Cl)C2=O)n1	-5.8%	3%	-3%	-2
Cc1cccc(CN2CCN(Cc3ccc4nonc4c3)CC2CCO)n1 (stereo not given)	-2.2%	-12%	-4%	3
CCOc1ccc(-c2cc(C(=O)OC)[nH]n2)cc1	-1.1%	-2%	-49%	3
Cc1ccc(S(=O)(=O)N2CCOCC2)cc1C(=O)c1nccn1C	-1.0%	1%	-1%	-5
O=C1C2Sc3[nH]c(=O)sc3C(c3ccccc3)C2C(=O)N1c1ccccc1 (stereo not given)	1.5%	-8%	0%	13
CCC(C)Sc1nc2c(c(=O)[nH]1)C(c1cccs1)C1=C(CCCC1=O)N2 (stereo not given)	-0.4%	-1%	23%	7
CCOc1cc2c(C)cc(=O)oc2cc1Cl	-2.6%	-19%	-2%	7
CCOC(=O)c1c(C)c(C(=O)NCc2ccco2)c(C)n1CC	0.9%	-13%	-6%	-10
Nc1ncnc2nc(SCc3ccccc3)[nH]c12	0.8%	3%	-24%	6

3 entries from above, sorted by their value in Rango-impB inh, ascending:
SMILES	Rango-impB inh	Rango dissoc inh	miR-21 reporter	GLA inh pH 4.5
Cc1cccc(/C=C2/SC(=O)N(Cc3ccccc3Cl)C2=O)n1	-5.8%	3%	-3%	-2
CCOc1cc2c(C)cc(=O)oc2cc1Cl	-2.6%	-19%	-2%	7
CCOC(=O)c1c(C)c(C(=O)NCc2ccco2)c(C)n1CC	0.9%	-13%	-6%	-10

Going on with the list.
SMILES	Rango-impB inh	Rango dissoc inh	miR-21 reporter	GLA inh pH 4.5
CCCCc1ccc(NC(=O)COc2ccc(C(=O)Nc3ccccc3C)cc2)cc1	.	.	-13%	5
CC(=O)c1ccc(NC(=O)CCc2c(C)nn(-c3ccc(N4CCOCC4)nn3)c2C)cc1	-0.9%	-5%	-29%&-40%	.
COc1ccc(C(C(=O)NC2CCCC2)N(C(=O)c2ccco2)c2ccccc2OC)cc1 (stereo not given)	4.8%	-8%	-5%	.
O=C(OCc1nnc(-c2ccccc2)o1)c1cc(S(=O)(=O)N2CCOCC2)ccc1F	-2.5%	8%	.	.
Cc1sc(NC(=S)Nc2ccc(F)cc2)c(C(N)=O)c1C	-2.9%	0%	-7%	-5
NC1=NCc2ccccc21	-4.7%	-3%	0%	-14
Nc1nc(Cl)cc(N2CCC(c3cc(-c4ccc(Cl)cc4)n[nH]3)CC2)n1	-4.1%	-10%	24%	-1
Nc1ccc(N=Nc2ccccc2O)c(N)c1	1.5%	6%	.	.
COc1ccc(CC(=O)NCc2ccccc2Cl)cc1S(=O)(=O)N1CCOCC1	-1.7%	10%	-6%	1
Cc1sc2nc(CSCC(=O)N(C)CC(=O)Nc3ccc(F)cc3)[nH]c(=O)c2c1C	?	?	.	.

In the list so far, these contain a thiophene ring, fused or not.
SMILES	Rango-impB inh	Rango dissoc inh	miR-21 reporter	GLA inh pH 4.5
COc1ccc(NC(=O)c2cc(-c3cccs3)on2)cc1	4.9%	20%	-47%	.
CCC(C)Sc1nc2c(c(=O)[nH]1)C(c1cccs1)C1=C(CCCC1=O)N2 (stereo not given)	-0.4%	-1%	23%	7
Cc1sc(NC(=S)Nc2ccc(F)cc2)c(C(N)=O)c1C	-2.9%	0%	-7%	-5
Cc1sc2nc(CSCC(=O)N(C)CC(=O)Nc3ccc(F)cc3)[nH]c(=O)c2c1C	?	?	.	.

(more compounds)
SMILES	Rango-impB inh	Rango dissoc inh	miR-21 reporter	GLA inh pH 4.5
CCSc1nc(C)nc2c1oc1ccccc12	-2.2%	-3%	-10%	-4
Cc1ccc(S(=O)(=O)N(C#N)c2nc(C)cc(C)n2)cc1	-1.9%	6%	-1%	13
O=c1cnnc(Nc2ccc(Cl)c(C(F)(F)F)c2)[nH]1	4.5%	1%	-13%	-7
CC1CCCCC1NCC(=O)NCc1ccc(F)cc1 (stereo not given)	?	-8%	0%	-12
COC(=O)[C@]12C(=O)C(C)=C(O)[C@@]1(C)C(C)=CC1[C@@]34CC[C@@H](OC(C)=O)C(C)(C)C3C(C[C@]12C)OC4=O (stereo not given in full)	-2.9%	15%	-1%	2
CNC(=O)C(=O)NCC(c1cccs1)S(=O)(=O)c1ccc(F)cc1 (stereo not given)	-0.7%	7%	-4%	.
N#Cc1cccc(S(=O)(=O)NCC(=O)NCc2ccc3c(c2)OCO3)c1	0.2%	2%	.	.
CCc1nc(NCCC(C)C)c(C#N)c2c1CCCC2	0.0%	0%	-1%	3
CNS(=O)(=O)c1cc(OC)c(OC)cc1CC(=O)OC	0.0%	-13%	0%	10
CN1CCN(S(=O)(=O)c2ccc(NC(=O)c3ccc(F)cc3)cc2)CC1	-2.2%	18%	-14%	-3
Cc1ccc(S(=O)(=O)Nc2ccc3ccccc3c2)cc1	0.4%	-5%	.	.
O=C(NNc1nc2c(F)cccc2s1)c1cc(=O)c2ccccc2o1	6.0%	-5%	-27%	-9
CC1(C)CC(=O)C=C(NNC(=O)c2cccnc2)C1	?	-13%	-1%	-22
N#Cc1ccc(C(=O)Nc2nc(-c3cccs3)c(C(=O)C(F)(F)F)s2)cc1	?	?	18%	-1

These rows are one share of the data; count on the stated rates, not on these rows.
